Ecoli rRNA inh: inhibits bacterial ribosomal RNA function over humanized ribosomes | E. coli WT GFP vs humanized-ribosome RFP mutants, fluorescence, 24 h; active compounds read low; DMSO median 0, no signal -100 | GFP signal change (wild-type ribosome), % (concentration not given with the values) | actives 1.6% (n = 350,000);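 active = significant combined selectivity score with lowered wild-type GFP, culture density cut under 30%, mutant RFP and density less affected; inactive = any of these conditions unmet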; note: one replicate is shown; some compounds called inactive have numbers as strong as hits
Ecoli rRNA inh OD600: recorded beside Ecoli rRNA inh, whose call it bears; OD600 change, %; measured here: OD600 growth;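 optical density of the mix in the first replicate; 0 = DMSO median and -100 = no signal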
Ecoli rRNA inh RFP: second read-out of Ecoli rRNA inh, no call of its own (marks repeat the call); RFP signal change, %; measured here: RFP humanized mutant strains;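 first replicate; 0 = DMSO median and -100 = no signal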
Numbers without * were called inactive; & = joins results of further samples.

Ecoli rRNA inh,Ecoli rRNA inh OD600,Ecoli rRNA inh RFP,compound
3,16,0.9,C[C@H](CO)N1C[C@H](C)[C@@H](CN(C)Cc2ccc(-c3ccccc3)cc2)Oc2c(NC(=O)NC3CCCCC3)cccc2C1=O
1,0,-2.0,CN1[C@H](C(=O)NC2CCCC2)[C@@H](CO)[C@@H]2Cn3c(ccc(-c4cccc(F)c4)c3=O)[C@@H]21
5,-3,4.0,CSc1ccc(OC2(C)CCN(Cc3ccc4c(c3)OCCO4)C2)cc1 (stereo unspecified)
-1,1,-4.2,Cc1noc(C)c1S(=O)(=O)N(C)C[C@@H]1Oc2c(NS(=O)(=O)c3cn(C)cn3)cccc2C(=O)N([C@@H](C)CO)C[C@@H]1C
2,3,-2.1,C[C@@H]1CN([C@@H](C)CO)C(=O)c2cc(NC(=O)Cc3cn(C)c4ccccc34)ccc2O[C@@H]1CN(C)C(=O)Nc1ccc(F)cc1
3,2,-0.8,CCC(=O)Nc1ccc2c(c1)OC[C@@H](C)N(C(=O)CC)C[C@H](C)[C@@H](OC)CN(C)C2=O
-1,2,-0.6,COc1cccc(NC(=O)N[C@H]2C=C[C@H](CC(=O)N3CCN(C)CC3)O[C@@H]2CO)c1
-1,24,-2.7,O=C(Nc1cc(F)ccc1F)N1CCCCN2[C@H](CO)[C@H](c3ccc(-c4cncnc4)cc3)[C@@H]2C1
3,-3,8.8,C[C@@H]1CN([C@@H](C)CO)C(=O)c2cc(NC(=O)C3CCCCC3)ccc2O[C@@H](C)CCCCO[C@@H]1CN(C)S(=O)(=O)c1ccccc1
5,-2,3.7,CN(C)c1ccc(CNC(=O)C2Cc3c(-c4cccc(C(N)=O)c4)ccnc3O2)cc1 (stereo unspecified)
-1,8,-0.9,COc1ccc(S(=O)(=O)Nc2ccc3c(c2)C(=O)N([C@H](C)CO)C[C@H](C)[C@@H](CN(C)CC2CCCCC2)OCCCC[C@@H](C)O3)cc1
-2,-7,2.1,C[C@@H]1CN([C@@H](C)CO)S(=O)(=O)c2ccc(-c3cccnc3)cc2O[C@@H]1CN(C)C(=O)C1CCC1

More entries.
Ecoli rRNA inh,Ecoli rRNA inh OD600,Ecoli rRNA inh RFP,compound
18,13,1.1,O=C1NC[C@H](CCCCN2CCN(CCc3ccccc3)C(=O)C2=O)N(CC2CCCCC2)C1=O
-1,-3,1.9,O=C(C[C@@H]1C[C@H]2c3cc(NC(=O)C4CCC4)ccc3O[C@H]2[C@H](CO)O1)NCc1ccc2c(c1)OCO2
-3,5,-3.3,CC(C)NC(=O)Nc1ccc2c(c1)C(=O)N([C@H](C)CO)C[C@@H](C)[C@@H](CN(C)C(=O)Nc1ccccc1)OCCCC[C@@H](C)O2
0,-1,2.9,O=C(Cc1cccnc1)N1CC(=O)N2[C@H](C1)[C@H](c1ccc(C3=CCCC3)cc1)[C@@H]2CO
1,4,0.3,COc1ccc(NC(=O)Nc2ccc3c(c2)C(=O)N([C@@H](C)CO)C[C@@H](C)[C@@H](CN(C)S(=O)(=O)c2ccc(C)cc2)OCCCC[C@H](C)O3)cc1
0,-2,1.2,Cc1noc(C)c1S(=O)(=O)Nc1ccc2c(c1)C(=O)N([C@@H](C)CO)C[C@@H](C)[C@H](CN(C)Cc1ccc3c(c1)OCO3)OCCCC[C@H](C)O2
-5,-2,-2.6,CNC(=S)N1CCC(C(=O)c2ccc(Cl)cc2)CC1
0,5,3.8,C[C@H](O)[C@@H]1CN2CCc3c([nH]c4ccccc34)[C@@H]2C[C@@H]1N(C)C(=O)Nc1ccc(F)cc1
-1,1,1.6,CO[C@H]1CN(C)C(=O)c2cc(NS(=O)(=O)c3ccc(C)cc3)ccc2OC[C@H](C)N(C)C[C@H]1C
0,3,-3.4,C[C@@H]1CN([C@H](C)CO)C(=O)c2cc(C3=CCCC3)cnc2O[C@@H]1CN(C)Cc1ccccn1
0,-1,0.9,C[C@@H]1CCCCO[C@H](CN(C)S(=O)(=O)c2ccccc2)[C@H](C)CN([C@@H](C)CO)C(=O)c2cc(NC(=O)Nc3ccc4c(c3)OCO4)ccc2O1
3,1,1.6,COc1ccc(CN(C)C[C@H]2OCCCC[C@H](C)Oc3ccc(NC(=O)c4ccncc4)cc3C(=O)N([C@H](C)CO)C[C@H]2C)cc1

Continued:
Ecoli rRNA inh,Ecoli rRNA inh OD600,Ecoli rRNA inh RFP,compound
-3,-3,0.5,C[C@@H]1CCCCO[C@H](CN(C)C(=O)c2ccccc2)[C@@H](C)CN([C@@H](C)CO)C(=O)c2cc(NC(=O)c3ccncc3)ccc2O1
8,23,-1.3,CN1CCCCN2[C@H](CO)[C@@H](c3ccc(C#CC4(O)CCCC4)cc3)[C@@H]2C1
-1,3,-1.4,CCNC(=O)C[C@@H]1CC[C@@H](NS(=O)(=O)c2ccc(C)cc2)[C@H](CO)O1
5,13,-3.4,CN(C)CC(=O)Nc1ccc2c(c1)[C@H]1C[C@H](CC(=O)NCc3ccccc3)O[C@@H](CO)[C@H]1O2
1,-1,0.0,O=C(C[C@@H]1CC[C@@H](NS(=O)(=O)c2ccc(F)cc2)[C@@H](CO)O1)NCc1ccncn1
-7,-21,1.0,COc1ccc(S(=O)(=O)N(C)C[C@@H]2Oc3c(NC(=O)Nc4ccc(F)cc4)cccc3C(=O)N([C@H](C)CO)C[C@H]2C)cc1
2,-2,-2.5,CC(C)CC#Cc1ccc([C@@H]2[C@@H](CO)N3C(=O)CN(C(=O)c4cnccn4)C[C@@H]23)cc1
-9,11,16,CCOC(=O)c1ccc(-c2ccc(N3C(c4cccc(OC)c4)=Cc4ccc(F)cc4C3CC(C)=O)cc2)cc1F (stereo unspecified)
2,17,-2.4,CN(C)C(=O)c1cccc(-c2ccc3c(c2)[C@@H]2[C@@H](CCN2C(=O)c2cnccn2)[C@H](CO)N3)c1
2,13,-4.3,CCCNC(=O)N1[C@@H](CO)[C@H](c2ccccc2)C12CN(C(=O)c1cccnc1)C2
-5,-9,1.8,C[C@@H]1CN([C@@H](C)CO)C(=O)c2cc(NC(=O)Nc3ccc(F)cc3)ccc2O[C@H]1CN(C)C(=O)Nc1ccc(C(F)(F)F)cc1
3,3,3.9,COc1ccc2c3c(n(C)c2c1)[C@H](CO)N(C(=O)NC1CCCCC1)CC31CN(C)C1

Sorted by molar mass (lowest first): ten of the compounds above.
Ecoli rRNA inh,Ecoli rRNA inh OD600,Ecoli rRNA inh RFP,compound
8,23,-1.3,CN1CCCCN2[C@H](CO)[C@@H](c3ccc(C#CC4(O)CCCC4)cc3)[C@@H]2C1
2,13,-4.3,CCCNC(=O)N1[C@@H](CO)[C@H](c2ccccc2)C12CN(C(=O)c1cccnc1)C2
2,-2,-2.5,CC(C)CC#Cc1ccc([C@@H]2[C@@H](CO)N3C(=O)CN(C(=O)c4cnccn4)C[C@@H]23)cc1
3,3,3.9,COc1ccc2c3c(n(C)c2c1)[C@H](CO)N(C(=O)NC1CCCCC1)CC31CN(C)C1
5,13,-3.4,CN(C)CC(=O)Nc1ccc2c(c1)[C@H]1C[C@H](CC(=O)NCc3ccccc3)O[C@@H](CO)[C@H]1O2
2,17,-2.4,CN(C)C(=O)c1cccc(-c2ccc3c(c2)[C@@H]2[C@@H](CCN2C(=O)c2cnccn2)[C@H](CO)N3)c1
-9,11,16,CCOC(=O)c1ccc(-c2ccc(N3C(c4cccc(OC)c4)=Cc4ccc(F)cc4C3CC(C)=O)cc2)cc1F (stereo unspecified)
-7,-21,1.0,COc1ccc(S(=O)(=O)N(C)C[C@@H]2Oc3c(NC(=O)Nc4ccc(F)cc4)cccc3C(=O)N([C@H](C)CO)C[C@H]2C)cc1
-5,-9,1.8,C[C@@H]1CN([C@@H](C)CO)C(=O)c2cc(NC(=O)Nc3ccc(F)cc3)ccc2O[C@H]1CN(C)C(=O)Nc1ccc(C(F)(F)F)cc1
3,1,1.6,COc1ccc(CN(C)C[C@H]2OCCCC[C@H](C)Oc3ccc(NC(=O)c4ccncc4)cc3C(=O)N([C@H](C)CO)C[C@H]2C)cc1

(further entries)
Ecoli rRNA inh,Ecoli rRNA inh OD600,Ecoli rRNA inh RFP,compound
0,0,-2.7,C[C@@H]1CN([C@H](C)CO)C(=O)c2cc(NC(=O)c3ccccc3)ccc2O[C@@H](C)CCCCO[C@H]1CN(C)S(=O)(=O)c1cn(C)cn1
5,12,0.3,CC(=O)NC(c1ccccc1)c1nc(-c2cccc(C#N)c2)cs1 (stereo unspecified)
-2,-7,1.6,COc1ccc2c3c(n(C)c2c1)[C@H](CO)NCC31CCN(C(=O)Nc2ccccc2F)CC1
-52,-83,-20,C[C@H]1NS(=O)(=O)c2cccc(Cl)c2O[C@@H]1c1ccccc1
3,13,1.5,O=C(CCCN1C(=O)/C(=C\c2cccc(Br)c2)SC1=S)Nc1ccc(C(=O)O)cc1
22,19,5.0,CC(=O)OCC(C)n1c(=O)c2ccccc2n1C(C)=O (stereo unspecified)
0,4,-0.8,O=C(C[C@@H]1CC[C@@H](NC(=O)c2cccc(F)c2)[C@H](CO)O1)NCCN1CCCC1
6,17,-1.3,CC(=O)N(C)C[C@@H]1Oc2ncc(-c3ccc(C(=O)N(C)C)cc3)cc2C(=O)N([C@@H](C)CO)C[C@H]1C
1,8,0.1,Cc1noc(C)c1NC(=O)Nc1cccc2c1O[C@H](CN(C)S(=O)(=O)c1ccccc1)[C@@H](C)CN([C@@H](C)CO)C2=O
0,4,0.9,CCCC(=O)Nc1ccc2c(c1)C(=O)N(C)C[C@@H](OC)[C@@H](C)CN(Cc1ccc(-c3ccccn3)cc1)[C@@H](C)CO2
2,5,-1.3,CCC(=O)Nc1ccc2c(c1)C(=O)N(C)[C@H]1CC[C@@H](CC(=O)NCCc3ccncc3)O[C@H]1CO2
0,9,-3.8,Cc1nc2ccc(C(=O)N3c4ccccc4N=C(c4ccc(C(F)(F)F)cc4)C3C(=O)NC(C)(C)C)cc2[nH]1 (stereo unspecified)

(more compounds)
Ecoli rRNA inh,Ecoli rRNA inh OD600,Ecoli rRNA inh RFP,compound
5,4,2.1,CC(C)NC(=O)N1CCCCN2[C@H](C1)[C@H](c1ccc(C#C[C@H](C)O)cc1)[C@@H]2CO
1,11,-3.4,C[C@@H]1CN([C@@H](C)CO)C(=O)c2cc(NC(=O)Nc3ccc(C(F)(F)F)cc3)ccc2O[C@@H](C)CCCCO[C@H]1CN(C)C(=O)Nc1ccccc1
4,-2,-1.5,COc1ccc(-c2cc(NC=O)c3ncc(-c4cccc(C(=O)NCCN(C)C)c4)n3c2)cn1
0&-32,14&-32,3.5&-4.3,COc1cccc(CN2[C@@H]3CNC[C@H]2C3c2ccc(-c3cccc(C#N)c3)cc2)c1 (stereo partly specified)
5,8,0.8,CC(C)NC(=O)N(C)C[C@H]1OCCCC[C@H](C)Oc2ccc(NC(=O)CCCN(C)C)cc2C(=O)N([C@H](C)CO)C[C@@H]1C
-1,7,8.0,CN1CCN(C(=O)C[C@H]2CC[C@@H](NC(=O)c3ccc4c(c3)OCO4)[C@H](CO)O2)CC1
-8.1*,7.8*,0.7*,CCOc1cc(/C=N/Nc2ccc(S(=O)(=O)Nc3ccccc3C(=O)O)cc2[N+](=O)[O-])cc(Cl)c1O
7,9,1.4,C[C@H]1COCc2cnnn2CC[C@H](Cc2ccccc2)C(=O)N1
-2,5,-1.2,COc1ccccc1CNC(=O)C[C@H]1C[C@H]2c3cc(NS(C)(=O)=O)ccc3O[C@H]2[C@H](CO)O1
1,5,1.6,C/C=C/c1ccc([C@H]2[C@H]3CN(C(=O)c4ccccc4)CC(=O)N3[C@H]2CO)cc1
-6,-24,3.8,Cc1cc(Cl)ccc1OC(C)C(=O)Nc1cccc(S(=O)(=O)N2CCOCC2)c1 (stereo unspecified)
-5,-11,2.8,O=S(=O)(N[C@@H]1CC[C@H](CCn2cc(-c3ccccc3F)nn2)O[C@H]1CO)c1ccc(Cl)cc1

(listing goes on)
Ecoli rRNA inh,Ecoli rRNA inh OD600,Ecoli rRNA inh RFP,compound
-7,-7,-5.0,CCCNC(=O)N1C[C@@H]2[C@H](c3ccccc31)[C@@H](CO)N2C(=O)Cc1ccccn1
1,3,-2.4,C[C@@H]1CN([C@@H](C)CO)C(=O)c2cc(C3=CCCC3)cnc2O[C@@H]1CN(C)C(=O)c1ccccn1
-1,-13,2.2,Fc1ccc(-c2ccc3nccn3c2)cc1Cl
0,0,1.6,C[C@H](CO)N1C[C@H](C)[C@@H](CN(C)Cc2ccc(-c3ccccc3)cc2)Oc2ccc(NC(=O)Nc3ccccc3)cc2C1=O
2,7,-0.5,COCCN(C[C@@H]1N[C@@H](CO)[C@@H]1c1ccc(-c2cccnc2)cc1)C(C)=O
4,-1,-2.3,COCC#Cc1cnc2c(c1)C(=O)N([C@@H](C)CO)C[C@@H](C)[C@@H](CN(C)C(=O)C1CC1)O2
12,13,-1.0,CCCCC(=O)N(C)c1c(C)nc2ccc(C(=O)N(CC)CCN(C)C)cn12
14,7,12,CCOC(=O)c1c(C)c(C)n2c1NC(=O)C2
4,-2,1.0,CCc1ccccc1NC(=O)CCC(=O)N1CCN(C(C)=O)CC1
2,7,-0.3,COc1ccc(CNC(=O)C[C@@H]2CC[C@H](NC(=O)c3ccc4c(c3)OCO4)[C@@H](CO)O2)cc1
1,1,-1.1,CN1C(=O)c2cc(NC(=O)C3CCCC3)ccc2OC[C@H]2O[C@@H](CC(=O)O)CC[C@H]21
-4,2,-1.1,C[C@H](O)C#Cc1ccc([C@H]2[C@@H](CO)N3CCCCN(C(=O)c4ccc5c(c4)OCO5)C[C@H]23)cc1
-1,-6,-0.1,COCC(=O)N1[C@H](CO)[C@@H](c2ccccc2-c2ccc(C)cc2)[C@@H]1C#N

Compound activity deposited in PubChem by Broad Institute.

The list is partial (hit frequency here may not be typical).
